Source: PubChem
Marburg entry inh – inhibitors of Marburg virus binding or cell entry; Marburg virus pseudotyped entry inhibition, cell reporter; control for the full effect not named in the record; about a third of the inactives were read at about 46 µM; Potency, µM (doses to about 37.8 µM), inactives show at the highest dose activity change, negative = inhibition, hits mostly inhibitors; actives 1.8% (n = 300,000); active = well fitted inhibition curve with a large enough effect; inconclusive = small, poorly fitted or top-dose-only effect, or effect the other way; inactive = flat fitted curve, though single readings scatter; tested in HEK293 cells; about a fifth of its hits are not listed in these tables; also: % is scaled to controls: 0 for no effect and ±100 for the full control effect; luciferase read-out
Cruzain noTriton – cruzain (T. cruzi) inhibition without detergent; P25779; purified cruzain, Z-FR-AMC fluorescence, no detergent; Potency, µM, inactives show max response, negative = inhibition, most hits filed as inhibitors; actives 2.3% (n = 200,000); AID 1476; active = well fitted curve in the direction sought with a large enough effect; inconclusive = small, poorly fitted or top-dose-only effect, or another doubt; inactive = no such curve, though single readings can be large; an effect the other way counts as inactive or inconclusive;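 also: plate controls were enzyme without inhibitor for no effect and buffer without enzyme for full effect; nearly all actives have a fitted effect of over 40% in size; top concentration of the series not given in the record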
Target sequence (P25779 123-467 limits assumed): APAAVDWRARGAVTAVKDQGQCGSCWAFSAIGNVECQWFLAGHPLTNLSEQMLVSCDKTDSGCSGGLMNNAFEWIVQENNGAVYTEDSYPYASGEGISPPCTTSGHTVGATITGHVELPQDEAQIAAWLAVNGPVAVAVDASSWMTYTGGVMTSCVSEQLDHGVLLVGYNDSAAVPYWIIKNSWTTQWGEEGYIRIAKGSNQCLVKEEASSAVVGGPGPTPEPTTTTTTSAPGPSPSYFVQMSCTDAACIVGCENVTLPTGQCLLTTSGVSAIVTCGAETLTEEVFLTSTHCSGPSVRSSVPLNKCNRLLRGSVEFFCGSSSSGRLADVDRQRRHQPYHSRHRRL
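Purified cruzain at 1.5 nM, pre-incubated 15 min with compound at room temperature in 100 mM sodium acetate pH 5.5, 5 mM DTT, 0.00005% Triton X-100. Reaction started with 2 uM Z-FR-AMC; AMC fluorescence increase over 60 s gives rate.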
LASV entry inh – Lassa virus entry inhibition | Potency, µM (highest dose often 37.9 µM), for the others: at the top dose activity change, negative = inhibition, actives largely listed as inhibitors | AID 540256 | Lassa virus pseudotype entry inhibition, cell reporter; control for the full effect not named in the record | actives 1.2% (n = 300,000); active means well fitted inhibition curve with a large enough effect; inconclusive means small, poorly fitted or top-dose-only effect, or effect the other way; inactive means flat fitted curve, though single readings scatter; tested in HEK293 cells; also: % is scaled to controls: 0 for no effect and ±100 for the full control effect; nearly all actives have a fitted effect of over 50% in size; luciferase read-out
Cruzain inh Det – cruzain (T. cruzi) inhibition with detergent; P25779; purified cruzain, Z-FR-AMC fluorescence, 0.01% Triton; Potency, µM, for the others: max response, negative = inhibition, hits mostly inhibitors; actives 0.43% (n = 200,000); AID 1478; active = well fitted curve in the direction sought with a large enough effect; inconclusive = small, poorly fitted or top-dose-only effect, or another doubt; inactive = no such curve, though single readings can be large; an effect the other way counts as inactive or inconclusive;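 also: plate controls were neutral wells for no effect and buffer without enzyme for full effect; nearly all actives have a fitted effect of over 40% in size; top concentration of the series not given in the record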
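Detergent-containing arm of a paired screen for aggregation-based inhibition: 0.01% Triton X-100 present. Cruzain at 1.5 nM cleaved 2 uM Z-FR-AMC at pH 5.5 with 5 mM DTT; AMC fluorescence gain over 60 s measured activity.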
NS1 inh – inhibitors of influenza NS1 protein function; S. cerevisiae slowed by influenza A NS1, growth recovery by OD600; AID 2326; actives 0.4% (n = 270,000); Potency, µM (top dose mostly 46.1 µM), for inactives: top-dose activity, positive = more growth; also: actives are rising curves; nearly all actives have a fitted effect of over 50% in size
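In this qHTS, NS1 from influenza A is expressed in budding yeast, where it slows growth. Cells are switched from glucose to 2% galactose medium (pH 6.0, -URA), treated with compound, and growth recovery is read at OD600.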
StopGo reporter – FMDV 2A StopGo reporter, luciferase signal. human cells with a luciferase reporter of 2A StopGo recoding; control for the full effect not named in the record. Potency, µM (top dose mostly 57.9 µM), for inactives: top-dose signal change, negative = less light. actives 1.2% (n = 410,000). AID 1159524; active = well fitted falling curve with a large enough effect; inconclusive = small, poorly fitted or top-dose-only effect; inactive = no such curve, though single readings can be large or run the other way; tested in HEK293T cells; also: % is scaled to controls: 0 for no effect and ±100 for the full control effect; nearly all actives have a fitted effect of over 45% in size; luciferase light after 4 h
SARS PLpro yeast – SARS-CoV PLP inhibition in yeast; S. cerevisiae expressing SARS-CoV PLpro, growth rescue; control for the full effect not named in the record; Potency, µM (highest dose often 32.9 µM), for inactives: at the top dose activity, positive = growth rescue; actives 0.19% (n = 330,000); AID 485353; also: 0% is about no effect; nearly all actives have a fitted effect of over 55% in size; growth read by luminescence after 48 h
RE007 growth inh – less growth of the S. pombe RE007 Vpr strain | Potency, µM (highest dose often 92.2 µM), inactives show top-dose activity change, negative = less growth | actives 0.21% (n = 360,000) | S. pombe RE007 Vpr strain, BacTiter-Glo ATP luminescence, 24 h; control for the full effect not named in the record | AID 651644; active = well fitted falling curve with a large enough effect; inconclusive = small, poorly fitted or top-dose-only effect; inactive = no such curve, though single readings can be large or run the other way;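 also: % is scaled to controls: 0 for no effect and ±100 for the full control effect; nearly all actives have a fitted effect of over 50% in size; the assay follows cell death caused by Vpr and the record does not say whether a fall means rescue or toxicity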
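Fission yeast RE007 carrying one integrated HIV-1 vpr copy, seeded at OD 0.01 in PMG+AL medium with 23 nL pinned compound. Grown 24 h at 30 degrees; viability read by BacTiter-Glo luminescence after 5 min.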
Numbers without * were called inactive; ? = inconclusive; nt = not tested or not shown; & = joins results of further samples; [ ] = another dose, or the depositor's remark. Unless noted, calls follow the shape of the dose curve; as a rule, active means well fitted rising curve with a large enough effect; inconclusive means small, poorly fitted or top-dose-only effect; inactive means no such curve, though single readings can be large or run the other way. Potency is read from the fitted curve at half-maximal effect.

SMILES	Marburg entry inh	Cruzain noTriton	LASV entry inh	Cruzain inh Det	NS1 inh	StopGo reporter	SARS PLpro yeast	RE007 growth inh
COCCN(CCOC)c1nc(-c2ccc([N+](=O)[O-])cc2)nc2ccccc12	nt	nt	nt	nt	-7%	?	-2%	-11%
Cn1c(CCN2CCCC2)nc2cc(NS(=O)(=O)c3ccc(Cl)cc3)ccc21	nt	nt	nt	nt	20%	-8%	-6%	7%
O=C(COC(=O)CCS(=O)(=O)c1ccc(Cl)cc1)NC1CCCCC1	-19%[46.1 µM]	-3%	10%	-0.8%	-11%	6%	-2%	-1%
Cc1ccc(-c2nn3c(=O)cc(CN4CCN(C(=O)Nc5cccc(C(F)(F)F)c5)CC4)nc3s2)cc1	nt	-10%	6%[46.1 µM]	4.4%	nt	-16%	nt	nt
Cc1ccc(-c2nnc(SCC(=O)NC3CC3)n2N)cc1	nt	nt	nt	nt	0%	-6%	-1%	-3%
COc1ccc(N2CCN(C(=O)C(=O)c3c[nH]c4ccccc34)CC2)cc1	nt	nt	nt	nt	-2%	5%	-6%	-2%
O=C(CCNS(=O)(=O)c1ccccc1C(F)(F)F)NCCCN1CCOCC1	4%	nt	12%	nt	nt	-2%	2%	-8%
O=C(O)c1ccc(N/N=C/c2cccc(F)c2)cc1	10µM*	?	?	-11%	-25%	-38%	-8%	3%
CN(C)S(=O)(=O)N1CCC(Oc2ccc(C(=O)NCc3cnn(C)c3)cc2)CC1	-15%[46.1 µM]	nt	-12%	nt	-2%	-30%	0%	0%
C#CCn1c(S(=O)(=O)Cc2ccc(C)cc2)nc(-c2ccccc2)c1-c1ccccc1	4.6µM*	?	3.3µM*	-3.4%	12%	-12%	-5%	5%&6%
CC(OC(=O)c1ccc(Cl)nc1)C(=O)NC1(C#N)CCCCC1 (stereo not drawn)	19%	nt	21%	nt	nt	-14%	0%	7%
CNS(=O)(=O)c1cccc(C(=O)OCc2cc(=O)oc3c(C)c(O)ccc23)c1	?	nt	-19%	nt	-3%	-26%	-8%	1%
Cc1cc(C)n(-c2nc(SCC(=O)N3CCCC3)c3c4c(sc3n2)CCCC4)n1	9%	?	-8%	1.5%	-78%	?	1%	0%
S=C(NC1CC1)N1CCCc2ccccc21	nt	nt	nt	nt	8%	-15%	-5%	-1%
O=C(c1ccc(Cn2cc(Br)cn2)o1)n1cccn1	-8%	-20%	-9%	?	-30%	-22%	?	0%
CCOC(=O)c1sc(NCCNc2nc(C)c(C(=O)OCC)s2)nc1C	11%	1%	-19%	4.8%	1%	-17%	1%	11%
Cc1cccc(Oc2sc(C(=O)c3ccccc3)c(N)c2C#N)c1C	-30%	?	?	-6.1%	7%	0%	1%	6%
CCn1c(SCC(=O)NC2CCCCC2)nnc1C(C)NC(=O)c1ccccc1F (stereo not drawn)	10%[46.1 µM]	nt	3%	nt	6%	-9%	0%	13%
Cc1ccc(C(=O)CNc2ccc(F)cc2)cc1	?	-6%	1%	0.6%	-19%	5%	-19%	-30%
CC(C)[C@H](N)c1nnc(SC/C=C/c2ccccc2)o1	0%	-1%	-22%	-2.9%	-5%	11%	-2%	-3%
Cc1cccc(NC(=S)Nc2ccccn2)c1	?	nt	-25%[46.1 µM]	nt	-51%	45%[activator]	0%	-27%
Cc1cccc2cc(C3CC(c4ccco4)=NN3S(C)(=O)=O)c(Cl)nc12 (stereo not drawn)	?	nt	?	nt	-2%	-19%	0%	25%
Cc1ccc(NC(=O)CSc2ncc3ccccn23)cc1	6%[46.1 µM]	nt	0%	nt	1%	21%	1%	-10%
CCCCn1c(N)c(N(CC(C)C)C(=O)c2cc3ccccc3cc2OC)c(=O)[nH]c1=O	2%[46.1 µM]	nt	-17%	nt	nt	73%[activator]	nt	6%
Cc1ccc(OS(=O)(=O)c2ccc(N3C(=O)CCC3=O)cc2)cc1	20%[46.1 µM]	nt	nt	nt	-4%	?	-1%	31%
CCOc1ccc(-c2csc3ncn(-c4ccc(OC)cc4)c(=O)c23)cc1	?	nt	?	nt	-1%	?	0%	6%
O=C(NCc1ccccc1Cl)c1cnc(N2CCOCC2)c2ccccc12	nt	-25%	9%[46.1 µM]	-7.7%	nt	24%	nt	nt
O=C(Nc1cccc(-c2ccc(F)cc2)c1)C1CCCN(Cc2cccnc2)C1 (stereo not drawn)	-24%	nt	-31%	nt	2%	-13%	3%	-2%
O=C(Nc1ccc(N2CCCCCC2)cc1)c1ccccc1Cl	?	nt	-25%[46.1 µM]	nt	-3%	0%	-3%	-19%
Cc1ccc2cc(C#N)c(N3CCCC3)nc2c1C	5%	-8%	0%	-5.0%	-5%	-8%	-3%	-26%
COc1ccc(NC2CC(=O)N(c3ccc(C(=O)O)cc3)C2=O)cc1 (stereo not drawn)	2%	nt	-7%[46.1 µM]	nt	nt	7%	0%	46%
C=C1CCN([C@H](C(=O)NCc2ccco2)C(C)C)S(=O)(=O)c2ccccc21	nt	nt	nt	nt	0%	-22%	1%	-22%
CCOc1ccccc1C(=O)n1nc2nc(C)cc(C)c2c1N	5%	-5%	-1%	1.1%	-16%	3%	-4%	1%
CC(C)[C@H](NC(=O)c1ccco1)C(=O)Nc1ccc(OC(F)F)cc1	5%[46.1 µM]	nt	8%	nt	2%	0%	-1%	-4%
CCOC(=O)N1CCN(S(=O)(=O)c2ccc(C(=O)Nc3nnc(CC)o3)cc2)CC1	3%	3%	?	1.2%	1%	-10%	?	15%
Cn1ccc2cc(S(=O)(=O)N3CCN(C(=O)Nc4ccccc4F)CC3)ccc21	nt	-12%	-18%[46.1 µM]	-3.7%	nt	-3%	nt	nt
C=CCOc1ccc(/C=C/C(=O)N2CCCN(S(=O)(=O)c3c(C)noc3C)CC2)cc1	-23%	nt	-30%	nt	nt	1%	-1%	-12%
CCC(C)COC(=O)C(C#N)c1nc2ccccc2nc1N1CCCCC1 (stereo not drawn)	-21%	?	-2%	3.0%	-90%	-16%	5%	-4%
COc1cccc(NC(=O)c2ccc3nsnc3c2)c1	?	nt	?	nt	-16%	12%	-8%	-21%
O=C(CN(Cc1ccccc1Cl)C(=O)c1csnn1)NCc1ccccc1	5%[46.1 µM]	nt	?	nt	-3%	6%	0%	-5%
Cc1ccc(C)c(N(CC(=O)Nc2ccc(-c3nc4ccc(C)cc4s3)cc2)S(C)(=O)=O)c1	41%	2%	6%	-10%	-3%	10%	-17%	nt
Cn1nc(C(F)(F)F)c(C#N)c1N1CCN(c2ccccc2F)CC1	?	-7%	?	0.5%	-3%	-14%	nt	12%
CC(C)(C)NC(=O)CN(C(=O)CS(=O)CC(=O)Nc1ccc(F)cc1)c1ccccc1 (stereo not drawn)	9%	3%	28%[14.3 µM]	5.0%	6%	21%	0%	10%
O=C(O)Cc1ccc(O)c(O)c1	?	-7%	17%	-3.0%	1%&0%	-18%&-15%	0%	-1%[18.4 µM]
O=c1c2ccccc2nc(-c2ccccc2)n1CCCn1ccnc1	-1%	9%	?	1.0%	-1%	-9%	-3%	5%
Cc1ccc(NC(=O)C2CC2c2ccccc2)cc1 (stereo not drawn)	nt	nt	nt	nt	-11%	52%[activator]	-1%	-16%
C=CCn1c(CSCc2ccc(F)cc2)n[nH]c1=S	nt	nt	nt	nt	8%	-18%	1%	-6%
COc1ccc(OC)c(NC(=O)CN(c2ccc(C(C)C)cc2)S(=O)(=O)c2c(C)noc2C)c1	2%	7%	nt	-1.7%	?	?	-5%	-4%
COc1cccc(N2CCN(C(=O)Cn3c(=O)oc4ccccc43)CC2)c1	?	nt	?	nt	4%	-11%	-1%	0%
COc1ccc(C(=O)C2CCN(C(=S)NCC3CCCO3)CC2)cc1 (stereo not drawn)	-3%[46.1 µM]	nt	-3%[46.1 µM]	nt	nt	1%	-2%	-4%
CC(C)(C)C(=O)N1CCCC1C(=O)O (stereo not drawn)	2%	2%	0%	3.6%	2%	14%	2%	14%
O=C(Cc1ccc2c(c1)OCCO2)N1CCN(c2ccccc2)CC1	10%[46.1 µM]	nt	-2%	nt	nt	39%[activator]	0%	-18%
COc1ccc2nc(NC(=O)c3ccc4ncsc4c3)sc2c1	nt	-1%	nt	-11%	20%	18%	18%	-11%
CCN(CC)S(=O)(=O)c1ccc(Oc2ccccc2OC)cc1	nt	nt	nt	nt	-1%	-8%	-2%	-3%
COc1ccccc1NC(=O)CC(=O)c1ccccc1	9%[46.1 µM]	nt	22%[46.1 µM]	nt	0%	20%	-1%	-9%
OC(CNCCc1ccccc1)c1ccccc1 (stereo not drawn)	-11%	9%	-14%	8.4%	-10%	5%	2%	6%
CCCCOC1(c2ccccc2)NC(=S)NN=C1c1ccccc1 (stereo not drawn)	0%	5%	nt	-2.3%	3%	nt	23%	nt
Cc1c(C)n(CC(O)CN(CCO)CCO)c2ccccc12 (stereo not drawn)	-15%[46.1 µM]	nt	7%[46.1 µM]	nt	nt	-5%	2%	14%
CC(Sc1nnc2ccccn12)C(=O)N1CCc2ccccc2C1 (stereo not drawn)	5%[46.1 µM]	-1%	-8%	-0.5%	-8%	43%[activator]	4%	0%
O=C1CN(C(=O)COC(=O)/C=C/c2ccc(F)cc2)c2ccccc2N1	8%[46.1 µM]	nt	-5%[46.1 µM]	nt	nt	-25%	0%	13%

Next part.
SMILES	Marburg entry inh	Cruzain noTriton	LASV entry inh	Cruzain inh Det	NS1 inh	StopGo reporter	SARS PLpro yeast	RE007 growth inh
CCOC(=O)N1CCC(NC(=O)C(Cc2ccccc2)NC(=O)C2CCCCC2)CC1 (stereo not drawn)	18%	?	-13%	-5.2%	?	32%[activator]	4%	7%
O=C(COC(=O)CNS(=O)(=O)c1c(Cl)cccc1Cl)Nc1cccnc1Cl	0%	-8%	5%	-13%	-7%	-2%	-3%	5%
CC(=O)c1c(C)[nH]c(C(=O)NCc2ccc(C)cc2)c1C	-2%	-6%	3%	2.8%	-1%	16%	-4%	-1%
CCN1C(=NCCCCO)N[C@@H](c2cccc(C(F)(F)F)c2)C(C(=O)OC)=C1C	-19%[14.2 µM]	nt	nt	nt	-1%&-2%	5%	-3%&3%	-22%
COc1ccc(Cc2noc(CN(C)C3CC(C)(C)NC(C)(C)C3)n2)cc1OC	?	nt	4%[46.1 µM]	nt	-2%	-4%	0%	9%
CCOc1ccc(-c2nonc2NC(=O)COc2ccccc2)cc1	nt	-9%	4%[46.1 µM]	-4.6%	nt	25%	nt	nt
